Choline anaer gr – choline-fed anaerobic bacterial growth inhibition; Gram-negative bacterium anaerobic choline minimal medium, absorbance growth; stronger effect = lower value; many inactives read as strong as hits in the columns shown; calls only; AID 1963822; hit rate 0.2% among 55,000;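 active = growth z-score on choline under -2 at 7 or 20 h with little or no fall on glycerol, limits in tiers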;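 also: stock transfer was 300 nL into about 50 µL; the organism is E. coli; final concentration not given here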
Choline anaer gr early – second read-out of Choline anaer gr, no call of its own (marks repeat the call); z-score; measured here: choline growth z-score, timepoint 1;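 score of optical density at 7 h as mean of two plates; lower means less growth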
Active calls of the source: *; i = inactive. A portion of the library (hit frequency here may not be typical).

Each structure is followed by: Choline anaer gr | Choline anaer gr early
> CCn1c(CN2CCN(S(=O)(=O)c3ccc(C(C)C)cc3)CC2)nc2cc(C(=O)N(C)C)ccc21
  i | 1.4
> O=C(c1cccc(CN2C(=O)C3CCCN3C(=O)c3ccccc32)c1)N1CCOCC1 (stereo unspecified)
  i | 1
> O=S(=O)(NCc1nc2cccnc2n1C1CC1)c1ccccc1F
  i | -2.5
> COc1ccc(COc2ccc(=O)n(-c3ccc(C(=O)Nc4ccc(OC)cc4)cc3)n2)cc1
  i | 0.95
> Fc1cccc(CSc2nnc3n2CCN3c2ccccc2)c1
  i | 1.3
> O=C(Nc1cccnc1)c1cc(=O)c2ccccc2o1
  i | -1
> O=C1CCSc2ccc(S(=O)(=O)N3CCC(N4CCCCC4)CC3)cc2N1
  i | -0.71
> CCc1ccc(-c2nc3ccccn3c2CNCCc2ccccc2)cc1
  i | -1.1
> O=S(=O)(NC1CCCCCCC1)c1ccc(-c2cnc(C3CCC3)o2)s1
  i | 1.1
> Cc1cccc(COC(=O)c2nnn(-c3cc(C)cc(C)c3)c2C)c1
  i | 0.57
> CCCCNC(=O)c1ccc2c(c1)nc1n2CCOC1
  i | -0.19
> CCCCNCc1ccc(OCc2ccc3c(c2)n(C)c(=O)n3C)c(OC)c1
  i | 0.14
> CNC(=O)N1CCCC(c2cccc(C(=O)NC(C)c3ccccc3)c2)C1 (stereo unspecified)
  i | 0.38
> CC(C)CC(=O)N1CCN(c2cc(=O)n(C)c(=O)n2C)CC1
  i | -0.54
> CCN1CCn2c(nc3cccc(Cl)c32)C1
  i | -0.23
> CN(CCc1noc(-c2cc3cc(Cl)ccc3[nH]2)n1)C(=O)c1ccoc1
  i | 1.4
> O=C1CCS(=O)(=O)N1c1ccc(S(=O)(=O)NC2CC2)cc1
  i | -0.62
> Cc1ccc(S(=O)(=O)N2CCC(c3noc(-c4ccccc4)n3)CC2)cc1F
  i | -0.72
> CCOCCCNC(=O)Cn1c(C)nc2onc(C)c2c1=O
  i | -0.13
> COc1ccc(NC(=O)c2nc3nc(-c4ccc(F)cc4)cc(C(F)(F)F)n3n2)cc1
  i | 0.35
> C=CCOc1ccc(C2Nc3ccc(C)cc3[C@H]3OCCC[C@@H]23)cc1 (stereo partly specified)
  i | 0.98
> CCOc1ccc(-n2c(-c3ccccc3)nc3c(cnn3-c3ccccc3)c2=O)cc1
  i | 0.39
> CCCC(=O)Nc1cccc(N2CCn3c(nc4ccccc43)C2)c1
  i | -0.12
> CCOc1ccccc1C(=O)NCC(c1ccc2c(c1)CCCN2C)N1CCCC1 (stereo unspecified)
  i | 0.23
> Cc1cc2c(cc1S(=O)(=O)N(C)CC(=O)N(C)CC1COc3ccccc3O1)OCC(=O)N2 (stereo unspecified)
  i | 0.39
> Cn1cnc(S(=O)(=O)N2CCC(C(=O)NCc3ccccc3Cl)CC2)c1
  i | -0.02
> Cc1ccc(NC(=O)CCc2nc(CSc3nc4ccccc4o3)no2)cc1
  i | -0.42
> COc1ccccc1-c1noc(-c2nn(-c3ccc(Cl)cc3)ccc2=O)n1
  i | -0.54
> O=S(=O)(c1ccc(Br)cc1)N1CCN=C1N1CCN(c2ccc(F)cc2)CC1
  i | -0.78
> CCN1CCN(C2CCN(C(=O)C(C)(C)C)CC2)C1=O
  i | -1.5
> O=C(Nc1cccc2nsnc12)c1sc2cccc(F)c2c1Cl
  i | 0.36
> O=S(=O)(NCc1cccs1)c1ccc(-c2nnc(C3CC3)o2)s1
  i | -0.09
> CCn1ccc2cc(S(=O)(=O)N3CCCN(C(=O)Nc4cc(F)ccc4F)CC3)ccc21
  i | 0.08
> CS(=O)(=O)Nc1ccc(-c2noc(-c3ccncc3)n2)cc1
  i | -0.45
> CCc1nc2nc3c(cn2n1)C(=O)CC(C)(C)C3
  i | -1.3
> CCN(CC)CCNc1ncnc2onc(-c3ccc(C)cc3)c12
  i | -0.16
> Cc1cccc(-c2nc3ccc(C(=O)NCC4CCCO4)cc3nc2-c2cccc(C)c2)c1 (stereo unspecified)
  i | 0.29
> COc1ccc(CNC(=O)CN(C)S(=O)(=O)c2ccc3c(c2)C(C)(C)C(=O)N3C)cc1
  i | 1.4
> C=CCNC(=O)c1ccc(CN2C(=O)C3CCCN3C(=O)c3ccccc32)cc1 (stereo unspecified)
  i | -0.61
> CNC(=O)N1CCc2cc(S(=O)(=O)Nc3cccc(Br)c3)ccc21
  i | -1.5
> CN1c2ccccc2C(=O)NC12CCN(C(=O)NCCc1ccccc1)CC2
  i | -0.08
> COc1ccc(CN2CC(C(=O)Nc3cc(-c4nc5ccccc5o4)ccc3OC)CC2=O)cc1 (stereo unspecified)
  i | -0.33
> CCCSCCCNC(=O)C(CC)N1C(=O)CCn2nc(C)cc21 (stereo unspecified)
  i | -0.36
> COc1ccc(OC)c(-c2[nH]ncc2CN2CCCC2c2cc(C)no2)c1 (stereo unspecified)
  i | 0.6
> COc1ccc(NC(=O)c2ccc(CN3C(=O)C4CCCN4C(=O)c4ccccc43)cc2)cc1F (stereo unspecified)
  i | 0.33

Arranged by the number under Choline anaer gr early (falling): some entries from above
Compound | Choline anaer gr early
Cc1cccc(-c2nc3ccc(C(=O)NCC4CCCO4)cc3nc2-c2cccc(C)c2)c1 (stereo unspecified) | 0.29
O=S(=O)(NCc1cccs1)c1ccc(-c2nnc(C3CC3)o2)s1 | -0.09
COc1ccc(CN2CC(C(=O)Nc3cc(-c4nc5ccccc5o4)ccc3OC)CC2=O)cc1 (stereo unspecified) | -0.33

Entries shown so far with fluorine:
Each structure is followed by: Choline anaer gr | Choline anaer gr early
> O=S(=O)(NCc1nc2cccnc2n1C1CC1)c1ccccc1F
  i | -2.5
> Fc1cccc(CSc2nnc3n2CCN3c2ccccc2)c1
  i | 1.3
> Cc1ccc(S(=O)(=O)N2CCC(c3noc(-c4ccccc4)n3)CC2)cc1F
  i | -0.72
> COc1ccc(NC(=O)c2nc3nc(-c4ccc(F)cc4)cc(C(F)(F)F)n3n2)cc1
  i | 0.35
> O=S(=O)(c1ccc(Br)cc1)N1CCN=C1N1CCN(c2ccc(F)cc2)CC1
  i | -0.78
> O=C(Nc1cccc2nsnc12)c1sc2cccc(F)c2c1Cl
  i | 0.36
> CCn1ccc2cc(S(=O)(=O)N3CCCN(C(=O)Nc4cc(F)ccc4F)CC3)ccc21
  i | 0.08
> COc1ccc(NC(=O)c2ccc(CN3C(=O)C4CCCN4C(=O)c4ccccc43)cc2)cc1F (stereo unspecified)
  i | 0.33

Next records:
Each structure is followed by: Choline anaer gr | Choline anaer gr early
> CCOc1ccccc1NC(=O)C(C)Sc1nnc2ccc3ccccc3n12 (stereo unspecified)
  i | -0.42
> Cc1ccc(OCC(O)Cn2c(C3CC3)nc3ccccc32)cc1C (stereo unspecified)
  i | -0.55
> CCCCC(=O)Nc1ccc(N2CCN(CC(=O)NC(C)(C)C)CC2)c(C(=O)O)c1
  i | -0.01
> O=c1c2ccccc2n2c(SCc3ccccc3F)nnc2n1Cc1ccc(F)cc1
  i | 0.47
> O=C(Cn1cnc2nc(N3CCOCC3)sc2c1=O)NC1CCCCC1
  i | 0.51
> COc1ccccc1NC(=O)Nc1c[nH]c(=O)[nH]c1=O
  i | 1.3
> Cc1cc2[nH]c(=O)c(=O)[nH]c2cc1S(=O)(=O)N1CCc2ccccc2C1
  i | 3.3
> O=c1[nH]c(SCc2ccc(Br)cc2)nc2nc[nH]c12
  i | 0.22
> c1ccc(Cn2cnc3cc4c(cc32)OCCO4)cc1
  i | -2.1
> COc1ccccc1-c1nc(S(=O)(=O)c2ccccc2)c(N2CCC(C)CC2)o1
  i | 3
> COC(=O)c1cc(C)nc2c1c(=O)nc(SCc1nc(-c3cccc(C)c3)oc1C)n2C1CC1
  i | 0.9
> Cc1ccc(CNC(=O)C2CC=C(c3c[nH]c4ccccc34)CC2)cc1 (stereo unspecified)
  i | 0.07
> CN(C)c1cc(N2CCCC(NC(=O)NCc3ccco3)C2)ncn1 (stereo unspecified)
  i | 0.4
> O=C1CC(c2nc(-c3ccc(N4CCCC4)cc3)no2)CN1c1cccc(Cl)c1 (stereo unspecified)
  i | 0.65
> COc1ccc(C(=O)N2CCC(NS(=O)(=O)c3ccc(OC)cc3)CC2)cc1
  i | -0.3
> CCn1c(=O)c(N2CCN(C(=O)CCc3ccccc3)CC2)nc2ccccc21
  i | -0.02
> CCC1Cn2c(C(=O)NCCN3CCCCC3)cc3c(Cl)ccc(c32)O1 (stereo unspecified)
  i | -1.3
> O=C(C1CC1)N1CCCN(Cc2noc(-c3ccccc3)n2)CC1
  i | 0.67
> Cc1sc(C)c(S(=O)(=O)NCc2ccc3c(c2)OCO3)c1-c1cc(C(F)(F)F)on1
  i | 0.79
> COC(=O)C1=CN(C2CC2)c2cc(N3CCC(C)CC3)c(F)cc2S1(=O)=O
  i | -2.2
> O=S(=O)(c1ccccc1)N1CCN(c2nc3ccccc3nc2C(F)(F)F)CC1
  i | -0.62
> CC1CCN(C(=O)C2CC(c3ccccc3F)=NO2)CC1 (stereo unspecified)
  i | -0.73
> Cc1nc2sccn2c(=O)c1NC(=O)COc1ccc(F)cc1
  i | 0.43
> Cc1nn(C(=O)Nc2cc(F)ccc2F)c2ccccc12
  i | 2.2
> COc1cc(NC(=O)c2nc(N3CCOCC3)c3oc4ccccc4c3n2)cc(OC)c1
  i | 0.95
> CCN(Cc1ccccc1)c1ccc(NS(=O)(=O)c2ccccc2)cc1C(=O)O
  i | -1.6
> CCN1C(=O)c2c(C(=O)NC(C)C)ncn2CC1(C)C(=O)NC1CCCC1 (stereo unspecified)
  i | -0.43
> O=S(=O)(c1cc(-c2nnc(C3CCC3)o2)co1)N1CCN(c2ccccn2)CC1
  i | 1.9
> CCC(Sc1nnc(-c2cc(C)ccc2NC(C)=O)c(=O)[nH]1)C(=O)Nc1cccc(OC)c1 (stereo unspecified)
  i | -0.72
> COc1cccc(CNC(=O)CN2C(=O)CSc3ncccc32)c1OC
  i | -0.23
> Cc1ccc(CNC(=O)C2CCCN2S(=O)(=O)c2ccc3c(c2)C(C)(C)C(=O)N3C)cc1 (stereo unspecified)
  i | -2.2
> COC(=O)CC1=CC(=O)N(CC(=O)Nc2ccc(Br)cc2)c2ccccc2N1
  i | -0.69
> CCOC(=O)c1c(C)c(CCC(=O)N2CCOCC2)n(C)c1C
  i | -1.8
> Cc1ccccc1-c1nc2scc(CCNC(=O)c3cccc(F)c3)n2n1
  i | -0.47
> Cc1cc(C2CCCN2C(=O)Nc2ccccc2Br)no1 (stereo unspecified)
  i | -0.17
> Cc1cn2c(=O)c(S(=O)(=O)NCC3CCCO3)c(C)nc2s1 (stereo unspecified)
  i | -0.75
> Cc1ccc(-c2noc3c(=O)n(CCC(=O)NCc4ccccc4)cnc23)cc1
  i | -0.7
> Cc1ccc(C(=O)NC2CCS(=O)(=O)C2)cc1NC(=O)c1nsc2ccccc12 (stereo unspecified)
  i | 0.23
> Cc1cc(C)cc(N(CC(=O)Nc2nc(C)cs2)S(=O)(=O)c2c(C)nn(C)c2C)c1
  i | -0.55
> CCC(SC1=Nc2ccccc2C2=NC(C(C)C)C(=O)N12)C(=O)N1CCc2ccccc21 (stereo unspecified)
  i | -0.27
> CCCn1c(C)ccc(-c2noc(CCCC(=O)NC3CCCC3)n2)c1=O
  i | 0.9
> O=C(NCCc1nc(-c2ccccc2)no1)c1ccccc1Cl
  i | -0.6
> CN(CCc1noc(-c2ccccc2)n1)C(=O)c1cccnc1
  i | -0.14
> O=C(NC1CC1)C1=CCN(C(=O)NC2CCCC2)CC1
  i | -0.03
> CCC(C)NC(=O)c1csc2c1CCCC2 (stereo unspecified)
  i | -0.11
> CCOC(=O)C1CCN(C(=O)CCc2c(C)nc3c(c(C)nn3-c3ccc(C)c(C)c3)c2C)CC1
  i | -0.58
> COc1ccc2c(c1)c(/C=C/c1nc3ccccc3c(=O)n1-c1cccc(C)c1)c(C)n2C
  i | -0.77
> COc1ccc(NS(=O)(=O)c2cc(-c3c(C)noc3NC(C)=O)ccc2C)c(OC)c1
  i | 0.15
> CCC(C)NS(=O)(=O)c1cc(-c2ccno2)oc1C (stereo unspecified)
  i | -0.26
> CCCCn1c(=O)c2sccc2n2c(CCC(=O)NC(C)C)nnc12
  i | -0.18
> Cc1c(C(=O)N2CCCC2)oc2ccc3c(c12)C(O)CC1(CCCCC1)O3 (stereo unspecified)
  i | -1
> CCc1noc2ncnc(N3CCCC(C(=O)NC(C)C)C3)c12 (stereo unspecified)
  i | -0.13
> Cc1ccc(/C=C/c2onc(C)c2S(=O)(=O)N2CCC(C(=O)N3CCC(N(C)C4CCCCC4)CC3)CC2)cc1
  i | 0.14
> COCCNC(=O)C1CCN(Cc2noc(-c3ccc(F)cc3)n2)CC1
  i | -0.74
> Cc1cccc(-c2nccc(Nc3ccc(C(=O)N4CCCC4)cc3)n2)c1
  i | 0.51
> Cc1ccc(NC(=O)C2CCN(c3ccc(N4CCOCC4)nn3)CC2)cc1C
  i | 0.43
> CS(=O)(=O)Nc1ccc(C2(C(=O)N3CCCC3)CCCCC2)cc1
  i | 0.26
> CCOC(=O)c1ccccc1NC(=O)CSc1nc2c(c(=O)[nH]1)CCCC2
  i | 0.21
> O=C(Nc1ccc2c(c1)OCCO2)c1ccc2nncn2c1
  i | -0.49
> Cc1ccc(-n2cnnn2)cc1Cl
  i | -0.01

Later entries.
Each structure is followed by: Choline anaer gr | Choline anaer gr early
> CC(C)c1ccc(CNC(=O)c2ccc(N3CCCC3)c(NC(=O)NCC3CCCO3)c2)cc1 (stereo unspecified)
  i | -0.88
> O=C(C1=CN(c2cc(F)cc(F)c2)c2cc(F)ccc2S1(=O)=O)N1CCOCC1
  i | -0.85
> CCCCc1nc2c3ccccc3n(CC(=O)c3c(C)[nH]c4ccccc34)c(=O)n2n1
  i | -0.34
> CCOc1ccc(C(=O)NC(Cc2ccc(OC)cc2)Cc2ccc3c(c2)OCO3)cc1 (stereo unspecified)
  i | 1.2
